# Marburg entry inh: Marburg virus entry inhibition; Marburg virus pseudotyped entry inhibition, cell reporter; control for the full effect not named in the record; about a third of the inactives were read at about 46 µM; Potency, µM (titrated, usually from 37.8 µM), for inactives: at the highest dose activity change, negative = inhibition, actives largely listed as inhibitors; 300,000 tested, 1.8% active; active = well fitted inhibition curve with a large enough effect; inconclusive = small, poorly fitted or top-dose-only effect, or effect the other way; inactive = flat fitted curve, though single readings scatter; tested in HEK293 cells; about a fifth of its hits are not listed in these tables; also: % is scaled to controls: 0 for no effect and ±100 for the full control effect; luciferase read-out
# 2A StopGo: FMDV 2A StopGo reporter, luciferase signal; human cells with a luciferase reporter of 2A StopGo recoding; control for the full effect not named in the record; Potency, µM (highest dose often 57.9 µM), for inactives: at the top dose signal change, negative = less light; 410,000 tested, 1.2% active; AID 1159524; active = well fitted falling curve with a large enough effect; inconclusive = small, poorly fitted or top-dose-only effect; inactive = no such curve, though single readings can be large or run the other way; tested in HEK293T cells; also: % is scaled to controls: 0 for no effect and ±100 for the full control effect; nearly all actives have a fitted effect of over 45% in size; luciferase light after 4 h
# SARS PLP yeast: SARS-CoV PLP inhibition in yeast; S. cerevisiae expressing SARS-CoV PLpro, growth rescue; control for the full effect not named in the record; 330,000 tested, 0.19% active; AID 485353; Potency, µM (titrated, usually from 32.9 µM), without a hit: at the highest dose activity, positive = growth rescue; active means well fitted rising curve with a large enough effect; inconclusive means small, poorly fitted or top-dose-only effect; inactive means no such curve, though single readings can be large or run the other way; also: 0% is about no effect; nearly all actives have a fitted effect of over 55% in size; growth read by luminescence after 48 h
# Lassa entry inh: blocks Lassa virus binding to or entry into cells; AID 540256; Lassa virus pseudotype entry inhibition, cell reporter; control for the full effect not named in the record; Potency, µM (top dose mostly 37.9 µM), for the others: top-dose activity change, negative = inhibition, usual class: inhibitors; 300,000 tested, 1.2% active; active means well fitted inhibition curve with a large enough effect; inconclusive means small, poorly fitted or top-dose-only effect, or effect the other way; inactive means flat fitted curve, though single readings scatter; tested in HEK293 cells; also: % is scaled to controls: 0 for no effect and ±100 for the full control effect; nearly all actives have a fitted effect of over 50% in size; luciferase read-out
# Cruzain Triton: cruzain (T. cruzi) inhibition with detergent. P25779. purified cruzain, Z-FR-AMC fluorescence, 0.01% Triton. 200,000 tested, 0.43% active. Potency, µM, for inactives: max response, negative = inhibition, most hits filed as inhibitors;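 also: plate controls were neutral wells for no effect and buffer without enzyme for full effect; nearly all actives have a fitted effect of over 40% in size; top concentration of the series not given in the record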
# Target sequence (P25779 123-467 limits assumed): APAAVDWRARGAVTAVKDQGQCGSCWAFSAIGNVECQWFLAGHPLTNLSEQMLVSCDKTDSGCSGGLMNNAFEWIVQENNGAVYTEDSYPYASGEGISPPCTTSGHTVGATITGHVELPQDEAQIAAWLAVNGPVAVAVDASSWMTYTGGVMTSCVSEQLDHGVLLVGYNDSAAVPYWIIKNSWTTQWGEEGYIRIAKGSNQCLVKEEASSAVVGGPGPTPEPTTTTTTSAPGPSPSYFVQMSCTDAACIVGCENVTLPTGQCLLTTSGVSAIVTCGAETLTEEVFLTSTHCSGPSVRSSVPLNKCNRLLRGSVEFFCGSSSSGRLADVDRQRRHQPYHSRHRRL
#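 In this qHTS format, compounds are incubated with 1.5 nM cruzain for 15 min at room temperature before 2 uM Z-FR-AMC is added. Release of AMC is followed at 360/450 nm, and progress is taken as the 60 s fluorescence difference.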
# Cruzain inh noDet: inhibitors of Trypanosoma cruzi cruzain without detergent | 200,000 tested, 2.3% active | purified cruzain, Z-FR-AMC fluorescence, no detergent | P25779 | Potency, µM, for inactives: max response, negative = inhibition, hits mostly inhibitors | AID 1476;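 also: plate controls were enzyme without inhibitor for no effect and buffer without enzyme for full effect; nearly all actives have a fitted effect of over 40% in size; top concentration of the series not given in the record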
#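 Detergent-free condition (0.00005% Triton X-100) in acetate buffer pH 5.5 with DTT. 1.5 nM enzyme and compound were pre-mixed 15 min, then 2 uM Z-FR-AMC substrate added; reaction progress from fluorescence change between first and third reads (60 s).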
# NS1 function inh: blocks influenza NS1 protein function; S. cerevisiae slowed by influenza A NS1, growth recovery by OD600; Potency, µM (series often up to 46.1 µM), inactives show at the highest dose activity, positive = more growth; 270,000 tested, 0.4% active; AID 2326; active means well fitted rising curve with a large enough effect; inconclusive means small, poorly fitted or top-dose-only effect; inactive means no such curve, though single readings can be large or run the other way; also: nearly all actives have a fitted effect of over 50% in size
#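 In this qHTS, NS1 from influenza A is expressed in budding yeast, where it slows growth. Cells are switched from glucose to 2% galactose medium (pH 6.0, -URA), treated with compound, and growth recovery is read at OD600.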
# RE007 growth inh: less growth of the S. pombe RE007 Vpr strain; S. pombe RE007 Vpr strain, BacTiter-Glo ATP luminescence, 24 h; control for the full effect not named in the record; Potency, µM (highest dose often 92.2 µM), for the others: at the highest dose activity change, negative = less growth; 360,000 tested, 0.21% active; active = well fitted falling curve with a large enough effect; inconclusive = small, poorly fitted or top-dose-only effect; inactive = no such curve, though single readings can be large or run the other way;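 also: % is scaled to controls: 0 for no effect and ±100 for the full control effect; nearly all actives have a fitted effect of over 50% in size; the assay follows cell death caused by Vpr and the record does not say whether a fall means rescue or toxicity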
#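 Fission yeast strain RE007, carrying one chromosomally integrated HIV-1 vpr copy, was seeded at OD 0.01 in PMG+AL medium with 23 nL pinned compound. After 24 h at 30 °C and 99% humidity, viability was read by BacTiter-Glo luminescence.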
# * = called active by the depositor; ? = inconclusive; · = no result given; & = joins results of further samples; [ ] = another dose, or the depositor's remark. Unless noted, calls follow the shape of the dose curve; as a rule, active = well fitted curve in the direction sought with a large enough effect; inconclusive = small, poorly fitted or top-dose-only effect, or another doubt; inactive = no such curve, though single readings can be large; an effect the other way counts as inactive or inconclusive. Potency is read from the fitted curve at half-maximal effect.
# Every second line gives: Marburg entry inh	2A StopGo	SARS PLP yeast	Lassa entry inh	Cruzain Triton	Cruzain inh noDet	NS1 function inh	RE007 growth inh
- O=C(NC(=O)c1ccccc1)NC(=O)c1ccccc1
→ ?	25%	11%	3%	-6.4%	2%	-9%	-12%
- O=C(CN1CCCCCC1)Nc1ccc(Br)cc1Br
→ 13%	29%	3%	3%	0.1%	9%	-10%	-10%
- CCOc1ccccc1NC(=O)CN1C(=O)COc2ccc(S(=O)(=O)N3CCCCC3)cc21
→ ·	-9%	·	-3%[46.1 µM]	-2.4%	-6%	·	·
- c1ccc(CCNc2ccc3nncn3n2)cc1
→ ·	2%	6%	·	-1.5%	-3%	-3%	4%
- Cc1ccc(NC(=O)Cn2nc(C)c3ccccc3c2=O)cc1
→ 2%	-15%	0%	-9%	-0.2%	2%	0%	-6%
- COc1ccc(N(Cc2cccs2)C(=O)COc2ccc([N+](=O)[O-])cc2)cc1
→ 2%[46.1 µM]	?	·	18%[46.1 µM]	-5.8%	7%	·	·
- CC(=O)Nc1ccc2c(c1)n(C)c(=O)n2C
→ 3%	17%	?	26%	3.6%	5%	9%	13%
- CC(CC(=O)Nc1ccc(S(=O)(=O)N2CCOCC2)cc1)c1ccccc1 (configuration not stated)
→ 15%[46.1 µM]	-4%	-1%	-1%	·	·	-79%	21%
- Cc1ccc2c(c1)cc1c(=O)n(CC(=O)NCCN3CCCC3)nc(C)n12
→ ·	-1%	-3%	·	·	·	1%	0%
- CCSc1ncc(Cl)c(C(=O)Nc2c(C(=O)Nc3ccccc3)oc3ccccc23)n1
→ -3%[46.1 µM]	-8%	·	?	-0.5%	0%	·	·
- Cc1cc(C(=O)NNC(=S)NCC(C)C)cs1
→ 7%	12%	4%	17%	0.5%	1%	5%	10%
- Cc1cccc(C(=O)OC(C)CN2CCOCC2)c1 (configuration not stated)
→ 2%[46.1 µM]	52%[activator]	-4%	?	·	·	·	1%
- COc1ccccc1Cn1ccn(Cc2c(F)cccc2Cl)c(=O)c1=O
→ ·	34%[activator]	·	-12%[46.1 µM]	-6.1%	?	·	·
- Cc1cn2c(=O)cc(COc3ccc(NC(=O)c4cccc(F)c4)cc3)nc2s1
→ 16%[46.1 µM]	0%	·	7%[46.1 µM]	0.6%	10%	·	·
- O=C(O)c1ccc(COc2ccc3c(c2)CCC3)cc1
→ ?	-28%	-2%	?	·	·	-57%	1%
- S=C(NC1CCCC1)N1CCN(C/C=C/c2ccccc2)CC1
→ ?	?	-1%	-21%[46.1 µM]	·	·	·	7%
- Cc1ccc(-c2c[n+](Cc3ccc(Cl)c(Cl)c3)c3n2CCC3)cc1
→ ?	-22%	3%	?	-9.1%	-4%	8%	-3%
- N#Cc1ccccc1OCC(=O)NC1CCCCC1
→ ?	32%[activator]	13%	?	·	·	·	-10%
- NC(=O)c1cc(C(=O)c2ccc(Cl)cc2)c[nH]1
→ -4%[46.1 µM]	14%	-2%	3%	·	·	-1%	-2%
- CCCCC(=O)Nc1ccc2oc(-c3cccnc3)nc2c1
→ 9%	13%	4%	?	-6.5%	7%	-17%	5%
- O=S(=O)(c1ccc2c(c1)OCCO2)N1CCN(Cc2ccccc2)CC1
→ 2%	-24%	8%	-13%	0.8%	-7%	-8%	-13%
- CCOC(=O)c1c(-c2cccc([N+](=O)[O-])c2)csc1NC(=O)CCCOc1ccccc1
→ 1%	-5%	-25%	6%	-3.8%	32µM*	-12%	41%
- O=C(O)C1=NN(c2cc(Cl)c(S(=O)(=O)O)cc2Cl)C(=O)C1
→ 7%[46.1 µM]	1%	·	7%[46.1 µM]	·	·	·	12%
- Cc1cc(=O)c2cc(C(=O)Nc3ccccc3)ccc2[nH]1
→ -12%[46.1 µM]	18%	·	9%[46.1 µM]	-5.6%	?	·	·
- O=C(NCCN1CCOCC1)c1cccc(Cl)c1
→ 8%	-11%	11%	34%[14.3 µM]	0.5%	0%	-2%	-2%
- CCOC(=O)C(C)Sc1nnc(NC(=O)c2ccc(C)c([N+](=O)[O-])c2)s1 (configuration not stated)
→ 14%	5%	-22%	-3%	-7.2%	-3%	-24%	-22%
- COc1cc(OC)cc(C(=O)NNC(=S)NC(=O)c2cccnc2)c1
→ ·	2%	3%	·	·	·	-26%	6%
- Cc1cc(CN2CCCC(CO)(Cc3cccc(Cl)c3)C2)n[nH]1 (configuration not stated)
→ ?	-12%	0%	-10%	·	·	8%	-10%
- CC(C)(C)c1cc(CCC(=O)N2CCC2)cc(C(C)(C)C)c1O
→ ·	41%[activator]	-8%	·	·	·	-86%	-9%
- Cn1nnnc1SCC(=O)NC1CCCC1
→ 18%[46.1 µM]	7%	-1%	18%[46.1 µM]	·	·	5%	10%
- CCOC(=O)C(C(=O)Cc1ccccc1)c1ccccc1 (configuration not stated)
→ 3%[46.1 µM]	0%	·	18%[46.1 µM]	·	·	·	-12%
- O=S(=O)(c1cccc(-c2n[nH]c(=S)n2-c2ccccc2Cl)c1)N1CCOCC1
→ 3%	75%[activator]	-2%	?	·	·	·	-3%
- CCCSCCCNC(=O)c1ccc(Cn2c(=O)c3cccn3c3cccnc32)cc1
→ ·	-5%	·	5%[46.1 µM]	0.4%	-3%	·	·
- Cc1cc(Nc2cccc(C)c2C)n2cnnc2n1
→ 1%[46.1 µM]	?	·	23%[46.1 µM]	-1.5%	10%	·	·
- CCOC(C(=O)OCCC[N+](C)(CC)CC)(c1ccccc1)c1ccccc1
→ -8%	·	-10%	5%	-7.4%	0%	-3%	-10%
- Cc1cccc(C(=O)Nc2cc3c(cc2C)n(C)c(=O)n3C)c1
→ ·	-7%	·	-12%[46.1 µM]	-0.4%	10%	·	·
- COc1ccccc1NC(=O)c1ccc(SCC(=O)NCc2ccccc2Cl)c([N+](=O)[O-])c1
→ -18%	-14%	-9%	6%	-4.5%	?	5%	-8%
- CC1CCN(C(=O)COC(=O)c2c[nH]c3ccccc23)CC1
→ ?	15%	-1%	-1%	·	·	·	4%
- Cc1ccc(-c2ccc(=O)n(CCC(=O)NCCc3ccccc3)n2)cc1
→ ·	2%	·	3%[46.1 µM]	-0.3%	3%	·	·
- Cc1ccccc1NC(=O)c1cccc2c1C(=O)N(C1CCCCC1)C2
→ 14%[46.1 µM]	-13%	8%	8%[46.1 µM]	·	·	-15%	-5%
- CC(C)OC(=O)c1ccc(NC(=O)CSc2nc3ncccc3[nH]2)cc1
→ ·	?	0%	·	·	·	-2%	16%
- COc1cccc(CN(C(=O)c2ccc([N+](=O)[O-])cc2)C2CCS(=O)(=O)C2)c1 (configuration not stated)
→ ·	-17%	1%	·	·	·	-10%	7%
- Cc1ccccc1SCC(=O)OCC(=O)NCc1ccccc1
→ ?	-13%	6%	-12%[46.1 µM]	·	·	·	2%
- Cc1cc(=O)oc(C)c1C(=O)Nc1ccc2ncccc2c1
→ 1%	-11%	2%	0%	-3.9%	-11%	3%	7%
- C/C(=N\OCc1ccccc1C#N)c1cc2ccccc2o1
→ 6%[46.1 µM]	-11%	-9%	-1%	·	·	-11%	10%
- COc1ccc(/C(C)=N/NC(=O)c2ccc(CSc3nncn3C)cc2)cc1
→ ?	-16%	0%	17%	·	·	·	-2%
- Cn1cc(-c2ccccc2C(N)=O)c(=O)c2cc(Cl)ccc21
→ -12%[46.1 µM]	3%	1%	0%	·	·	·	-21%
- Cn1c(CCNC(=O)c2ccco2)nc2cc(NS(=O)(=O)c3ccc(Cl)cc3)ccc21
→ -17%&-17%	-28%	1%	-1%	0.7%	-12%	-47%	16%
- COc1ccc(C)cc1-n1cnnn1
→ ·	6%	-1%	·	·	·	-2%	15%
- COc1ccc(OC)c(-c2cc(C(=O)Nc3c(C)nn(Cc4ccc(Cl)cc4)c3C)no2)c1
→ ?	?	-31%	?	-3.6%	-15%	-77%	4%
- COc1ccc(C(=O)COC(=O)c2cc(-c3cccs3)nc3ccccc23)cc1
→ 1%[46.1 µM]	62%[activator]	·	11µM*	-4.2%	20µM*	·	·
- COc1ccc(Cl)cc1NC(=S)N(Cc1cccnc1)Cc1ccco1
→ ?	-6%	-7%	?	·	·	·	-11%
- Cc1ccc(S(=O)(=O)N2CCCC(C(=O)NC3CCCC3)C2)cc1Cl (configuration not stated)
→ ?	?	-3%	0%	·	·	-1%	6%
- CN(C)c1nc(N)nc(Nc2ccccc2C#N)n1
→ 2%[46.1 µM]	13%	-3%	?	-1.0%	7%	?	0%
- CN1CCC(=O)N([C@H](CSc2ccccc2)Cc2ccccc2)CC1
→ ·	-5%	7%	·	·	·	18%	-6%
- Cc1c(N=C2SCC(=O)N2/N=C/c2ccccc2Cl)c(=O)n(-c2ccccc2)n1C
→ ?	8%	1%	-2%	-2.8%	-5%	6%	11%
- CC1CCN(CCCCOc2ccc(F)cc2)CC1
→ ?	-1%	0%	-7%	·	·	-3%	3%
- COc1ccc(OS(=O)(=O)Cc2ccccc2)cc1
→ ?	15%	-1%	17%	·	·	2%	0%
- COc1ccc(OC)c(CNCc2ccc3c(c2)OCO3)c1
→ -11%[46.1 µM]	-19%	0%	0%[46.1 µM]	·	·	-2%	-10%
- CC(N=c1ccccn1C(=O)Nc1ccc(F)cc1)c1ccco1 (configuration not stated)
→ 2%	·	-3%	-1%	3.1%	-1%	-16%	5%
- N#Cc1ccc(OCC(=O)N2CCN(S(=O)(=O)c3cccs3)CC2)cc1
→ -29%	-11%	8%	-14%	-3.8%	13%	1%	-6%
- CCOC(=O)[C@@H]1[C@H]2COc3ccc(Br)cc3[C@H]2N2C(=O)N(c3ccc(F)cc3)C(=O)[C@@]12C
→ ·	-13%	19%	·	·	·	5%	-10%

# From PubChem
